Compound activity: PubChem, National Center for Advancing Translational Sciences (NCATS)
TRPML1 blocker – qHTS for Inhibitors of the Human Mucolipin Transient Receptor Potential 1 (TRPML1). Mucolipin-1 (Homo sapiens), Q9GZU1. TRPML1-inducible cells, Ca2+ dye fluorescence, FDSS; hits give low values; inhibition of EC80 agonist-evoked calcium signal. activity change, negative = inhibition, % (test concentration not listed). 390,000 tested, 0.02% active. AID 624415, 2012; in the data active means activity change below about -50%; inconclusive means about -30% to -50%; inactive means above about -30%;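 note: stimulus is agonist 54-4 at its EC80 concentration; % is set by controls: 0 for no effect and ±100 for the full control effect; compound concentration not given in the record; the text of the record puts the active cut at -80%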
Target sequence (Q9GZU1 whole entry, looked up): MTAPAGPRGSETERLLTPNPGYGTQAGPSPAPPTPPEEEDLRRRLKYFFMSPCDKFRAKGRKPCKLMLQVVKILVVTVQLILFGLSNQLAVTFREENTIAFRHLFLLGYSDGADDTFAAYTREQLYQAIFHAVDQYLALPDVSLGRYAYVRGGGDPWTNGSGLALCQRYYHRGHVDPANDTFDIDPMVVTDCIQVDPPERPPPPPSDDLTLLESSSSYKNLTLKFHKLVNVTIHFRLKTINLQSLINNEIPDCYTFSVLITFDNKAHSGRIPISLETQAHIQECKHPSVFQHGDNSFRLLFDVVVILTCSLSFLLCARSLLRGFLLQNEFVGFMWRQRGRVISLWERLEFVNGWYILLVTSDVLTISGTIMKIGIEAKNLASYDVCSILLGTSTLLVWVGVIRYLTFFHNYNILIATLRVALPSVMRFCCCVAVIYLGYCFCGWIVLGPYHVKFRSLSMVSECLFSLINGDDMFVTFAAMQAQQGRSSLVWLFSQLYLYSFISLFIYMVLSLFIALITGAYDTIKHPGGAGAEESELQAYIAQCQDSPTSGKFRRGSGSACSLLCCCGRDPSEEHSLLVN
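TRPML1-DL cells, Tet-induced overnight (~16 h, 37 °C) at 1,500 cells/well, were loaded with Ca8 no-wash dye plus quencher for 45-90 min at room temperature. Compounds were pinned during FDSS kinetic reading; agonist 54-4 at EC80 (4 uM final) then added.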
PINK1 expr mod – A Quantitative High throughput Screen to Identify Chemical Modulators of PINK1 Expression | AID 624263, 2012 | Potency, µM (series often up to 76.6 µM), without a hit: top-dose activation (PINK1 increase), most hits filed as activators | 410,000 tested, 0.2% active | PINK1 immunofluorescence, high-content cytometry, 24 h; active = well fitted activation curve with a large enough effect; inconclusive = small, poorly fitted or top-dose-only effect; inactive = flat fitted curve, though single readings scatter; cell line not stated here;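 note: potency is the fitted concentration of half-maximal effect; % of control where 0% means no effect; nearly all actives have a fitted effect of over 65% in size; a mitochondrial uncoupler was the plate control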
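Stable cell line, 250 cells/well, 12 h attachment; compounds pinned at 5 concentrations, 24 h; CCCP control. Fixed with nuclear dye, primary antibodies 12 h at 10 degrees C, secondary plus cell stain; laser-scanning cytometer read.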
TRPML1 agonist – qHTS for Agonists of the Human Mucolipin Transient Receptor Potential 1 (TRPML1). TRPML1-expressing cells, Ca2+ dye fluorescence, FDSS; host cell line not named in the record; reference of the full effect not given here. activation, % (concentration not given with the values). Mucolipin-1 (Homo sapiens), Q9GZU1. AID 624414, 2012. 410,000 tested, 0.12% active; in the data active = activation above about 50%; inconclusive = about 30% to 50%; inactive = below about 30%; note: 0% is about no effect; the text of the record puts the active cut at 80%
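Agonist activity was taken from a 110 s kinetic Ca2+ dye read on the FDSS after pinning compounds onto TRPML1-DL cells. The cells were seeded at 1,500/well with Tet inducer, incubated about 16 h, then dye-loaded at room temperature.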
Six1-Eya2 blk – qHTS Assay for Inhibitors of the Six1/Eya2 Interaction; Homeobox protein SIX1 (Homo sapiens) + Protein phosphatase EYA2 (Homo sapiens), …; AlphaScreen GST-Six1/His-Eya2 binding, biochemical; hits give low values; control for the full effect not named in the record; activity change, % (no concentration beside the values); 360,000 tested, 0.56% active; in the data active = activity change below about -65%; inconclusive = about -30% to -65%; inactive = above about -30%; note: % is set by controls: 0 for no effect and ±100 for the full control effect; compound concentration not given in the record
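AlphaScreen luminescence read after one hour at 37 °C in darkness. Pin-transferred compounds met GST-Six1 and His-Eya2 protein (5X stock 250 nM/500 nM) plus glutathione donor and Ni-chelate acceptor beads (5X, 50 ug/mL).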
D2 ag – Beta-Arrestin HTS for Positive Allosteric Modulators of the Human D2 Dopamine Receptor: Agonists | DiscoveRx PathHunter D2 beta-arrestin, luminescence, 90 min; 100% = 57 uM dopamine signal | D(2) dopamine receptor (Homo sapiens), P14416 | 360,000 tested, 0.084% active | activation, % (no concentration beside the values); in the data active = activation above about 40%; inconclusive = about 15% to 40%; inactive = below about 15%; note: compound concentration not given in the record; the text of the record calls up to 30% inactive
Target sequence (P14416 whole entry, looked up): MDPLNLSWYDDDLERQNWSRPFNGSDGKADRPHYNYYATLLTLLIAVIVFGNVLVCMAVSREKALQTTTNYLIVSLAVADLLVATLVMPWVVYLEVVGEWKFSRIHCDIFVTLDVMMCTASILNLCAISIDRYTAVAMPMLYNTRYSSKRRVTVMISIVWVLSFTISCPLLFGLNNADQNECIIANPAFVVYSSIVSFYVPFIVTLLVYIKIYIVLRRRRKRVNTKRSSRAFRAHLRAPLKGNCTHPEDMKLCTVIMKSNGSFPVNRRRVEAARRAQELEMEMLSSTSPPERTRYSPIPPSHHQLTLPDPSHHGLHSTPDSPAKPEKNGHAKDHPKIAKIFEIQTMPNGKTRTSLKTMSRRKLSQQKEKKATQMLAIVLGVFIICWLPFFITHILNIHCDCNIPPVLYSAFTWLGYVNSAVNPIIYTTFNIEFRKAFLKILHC
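DiscoveRx PathHunter D2 beta-arrestin cells (2,100/well) attached overnight, then compound-stimulated 90 min at 37 C in HBSS/10 mM HEPES/0.1% Tween-20 buffer; beta-galactosidase complementation read by luminescence after 1 h at ambient temperature. Dopamine 57 uM final (EC100) as control.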
D2 PAM – Beta-Arrestin HTS for Positive Allosteric Modulators of the Human D2 Dopamine Receptor: Potentiators; D(2) dopamine receptor (Homo sapiens), P14416; DiscoveRx D2 beta-arrestin cells, luminescence, 90 min; 100% = 57 uM dopamine signal; potentiation, % (test concentration not listed); 360,000 tested, 0.23% active; AID 624464, 2012; active = potentiation of 50% or more; inconclusive = 30% to 50%; inactive = 30% or less;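 note: compound concentration not given in the record; tested on top of an EC20 dose of dopamine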
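D2 cells co-treated with compound plus 50 nM dopamine (EC20) for 90 min at 37 deg C to detect potentiation. Beta-arrestin recruitment was read as enzyme-fragment luminescence after 1 h at ambient temperature. Full response was set by 57 uM dopamine.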
Active calls of the source: *; u = inconclusive; x = no result given; [ ] = dose if it differs, or a comment.

SMILES	TRPML1 blocker	PINK1 expr mod	TRPML1 agonist	Six1-Eya2 blk	D2 ag	D2 PAM
C/C(Cc1nnn(-c2cc(C)on2)n1)=N\O	-2.3	1.7%	-0.4	0.0	-1.1	-0.9
CN1CCN(C(=O)c2cccn(Cc3cccc(Cl)c3)c2=O)CC1	24.5	-0.8%	0.8	10.2	9.6	-2.0
CCCCc1[nH]c(=O)c(C#N)c2c1CCCC2	-5.2	0.9%[38.3 µM]	0.8	-0.9	-3.9	-12.0
CC1Cc2cc(S(=O)(=O)N3CCCCC3)ccc2N1C(=O)C1CCC1 (stereo unspecified)	11.2	3.2%	1.0	0.7	-1.3	-10.3
C=C(C)C1CC=C(C)/C(=N/Nc2ccccc2[N+](=O)[O-])C1 (stereo unspecified)	-12.8	0.6%	0.4	-10.8	-2.7	-8.7
CCC(C(=O)Nc1c2c(nn1C(C)(C)C)CS(=O)(=O)C2)c1ccccc1 (stereo unspecified)	2.1	-0.5%	0.8	-0.1	-2.4	7.4
CCC(C)NC(=O)c1cc2c(Cl)nc3ccc(C)cc3c2s1 (stereo unspecified)	-7.5	-0.4%	1.5	x	x	x
Cc1cc(C)n(/C(=C\N(C)C)C(=O)c2ccc(Cl)cc2)n1	-4.6	0.3%	-0.6	-1.8	-1.3	-2.0
C=CCN1C(=O)N/C(=C/c2ccccc2OCC(=O)Nc2ccc(F)cc2)C1=O	-12.5	8.2%	1.5	5.0	1.4	-8.9
O=C(COC(=O)Cc1ccsc1)Nc1ccc(Br)cc1	-4.8	2.1%	2.7	1.2	-1.2	-2.9
Cc1cccc(Cn2c(C)c(C)c3cc(C(=O)NCc4ccc(C)o4)ccc32)c1	87.7	5.1%	2.2	x	x	x
O=C(CSc1nc2ccccc2s1)NNC(=O)Nc1ccc(Cl)c(Cl)c1	2.9	-0.7%	2.3	u	-0.3	-4.8
CC(O)CC(C(=O)NNc1ccccc1)C(=O)NNc1ccccc1 (stereo unspecified)	-4.6	2.2%	4.0	-2.6	-3.8	-1.2
O=C(c1ccc2c3n(nc2c1)-c1ccccc1CO3)N1CCOCC1	-15.3	3.8%	-0.4	4.4	-0.6	-6.4
C=CCNc1nc(C(=O)OCC(=O)Nc2cccc(SC)c2)cs1	8.1	1.0%	2.1	-1.8	-4.6	-64.6
COc1cccc(C2(O)CCN(C(=O)C3CC3)CC2)c1	-4.9	0.8%	-0.9	0.0	-6.8	-2.0
Cc1ccccc1NC(=O)c1sc2nc3c(cc2c1N)CCCC3	16.2	5.0%	1.5	x	x	x
COC(=O)c1ccc(C2/C(=C(/O)c3ccc(Cl)cc3)C(=O)C(=O)N2C2CCS(=O)(=O)C2)cc1 (stereo unspecified)	13.3	-1.3%	0.4	10.5	2.7	-5.6
CCOc1ccc(N(CC(=O)N2CCN(c3ccccc3OC)CC2)S(=O)(=O)c2ccc(F)cc2)cc1	-13.1	-0.6%	-0.6	-16.9	-0.6	-10.3
CC(C)C[C@H]1CNC(=S)N1C[C@H]1CCCN1C[C@H](CC(C)C)N1C[C@H](Cc2ccc(O)cc2)N(CCc2ccccc2)C1=S	14.3	14.7%	0.1	-15.5	-3.2	-11.0
CCOc1ccc(NS(=O)(=O)c2ccc(C(=O)NCC(c3ccc(OC)cc3)N3CCOCC3)cc2)cc1 (stereo unspecified)	1.0	-0.6%	-0.2	4.6	1.1	-7.8
CC(=O)N1CCCc2cc(S(=O)(=O)N3CCC(C(=O)NCc4cccc(C)c4)CC3)ccc21	-4.7	-1.6%	0.2	x	x	x
COc1cccc(C2C(C(=O)c3cccs3)=C(O)C(=O)N2CCN2CCOCC2)c1OC (stereo unspecified)	10.6	2.0%	0.9	5.5	1.1	3.8
CCCN1C(=O)C(=O)c2cc(Cl)ccc21	7.1	1.5%	0.7	11.0	-13.0	x
Cn1cnnc1SCC(=O)NNC(=O)COc1ccc(Br)cc1	4.9	3.3%	-0.2	0.2	-2.8	-7.9
CCOC(=O)c1c(CC(C)C)csc1N	6.0	5.4%	0.0	-1.7	-3.1	-8.0
O=C(CN1CCN(S(=O)(=O)c2ccc(F)cc2)CC1)Nc1ccc(Cl)c(C(F)(F)F)c1	21.2	4.9%	0.1	3.8	6.3	-9.1
CC(c1ccon1)N(C)Cc1cn(Cc2ccccc2)nc1-c1ccc2c(c1)OCO2 (stereo unspecified)	-8.8	2.1%	2.3	-0.8	-1.7	-2.9
COc1ccc(CN(C(=O)c2cc3ccccc3oc2=O)C2CCCCC2)cc1OC	10.1	-0.9%	1.3	-7.9	-2.5	-1.7
CC(=O)c1ccc(NC(=S)NC(=O)/C=C/c2ccco2)cc1	x	14.3%	x	12.7	-0.6	-15.3
CCN1C(=O)N[C@@H](c2cccs2)C(C(=O)OC)=C1C	1.4	0.3%	-0.1	1.4	0.2	-53.7
O=C(O)c1cccc(N/N=C/c2ccc(OC(F)(F)F)cc2)c1	-6.9	1.9%	0.2	-4.9	1.5	-13.9
CCCOc1ccc(/C=C2/C(=O)ON=C2C)cc1Cl	21.1	2.5%	2.1	10.8	0.6	-5.7
CC(=O)c1c(C)[nH]c(C(=O)Nc2cccc(C)n2)c1C	-10.7	0.4%	0.0	-5.0	-0.6	-9.9
NC(=O)Cn1c(=O)n(CCCC(=O)NC2CCN(Cc3ccccc3)CC2)c(=O)c2ccccc21	-2.4	-0.8%	-0.2	-12.4	2.0	-39.2
CSc1ccc(C2(O)Cc3cccc[n+]3C2c2ccccc2)cc1 (stereo unspecified)	5.2	-0.9%	0.0	-14.6	-3.0	-10.7
O=C(CSc1nnc(-c2ccccc2)n1Cc1ccco1)Nc1ccc(S(=O)(=O)N2CCCC2)cc1	9.4	-1.7%[38.3 µM]	2.3	-13.7	2.5	-4.2
CC(C)c1ccc(NS(=O)(=O)c2ccc3[nH]cc(C(=O)NCCc4ccccc4)c(=O)c3c2)cc1	-16.1	2.1%	0.8	x	x	x
O=C(O)/C=C/c1cccc(NC(=O)c2ccccc2)c1	45.7	0.3%	-0.2	0.0	-1.1	-3.7
CCOC(=O)c1c(C)oc2ncnc(N3CCN(c4cccc(Cl)c4)CC3)c12	-20.9	4.6%	0.4	x	x	x
CCN(Cc1nc2ccccc2c(=O)[nH]1)C(=O)COc1ccccc1-c1ccccc1	-11.6	-0.1%	1.6	-1.3	-3.6	-1.5
CCOC1=C2CN(S(=O)(=O)c3ccc(C)cc3)[C@H](c3cccs3)C[C@H]2n2c(=O)n(-c3ccccc3)c(=O)n2C1	12.9	0.4%	-0.3	1.8	-3.1	-0.1
C=CCN=C1CC(C)(C)CC(=O)/C1=C(/O)CCC(=O)OC	13.1	-1.5%	-0.6	7.5	1.4	-1.7
CCc1ccc(N2C(=O)CC(N3CCN(c4ccccn4)CC3)C2=O)cc1 (stereo unspecified)	-7.3	-0.5%	-0.8	-1.5	-6.3	-5.0
CCS(=O)(=O)N1CCCC(C(=O)NC2CCCC2)C1 (stereo unspecified)	-0.5	3.2%	-0.5	-2.6	-1.1	-12.9
CCNc1oc(-c2cccc3ccccc23)nc1C#N	8.8	-1.0%	-1.2	10.0	0.2	-7.8
CC(=O)OC[C@@H]1CN(Cc2ccccc2)C[C@H](n2cnc3c(N4CCCC4)ncnc32)O1	x	-0.4%	-0.5	8.6	-4.5	0.5
Cc1nnc(Oc2ccccc2)c2ccccc12	22.9	0.0%	1.7	12.6	2.6	-1.8
CCn1c(=O)c(-[n+]2ccccc2)c(O)c2ccccc21	-0.7	-1.6%	-0.2	5.9	-0.7	-27.4
N#CC(C#N)=Cc1cc2ccccc2nc1N1CCOCC1	23.4	2.6%	0.1	-2.5	-2.8	-19.9
O=S(=O)(c1ccc(NC(=S)N/N=C/c2cccc(Oc3ccccc3)c2)cc1)N1CCOCC1	-4.0	2.5%	0.5	-3.4	-3.2	-10.2
Cc1ccc(Cl)cc1N1CCN(C(=O)CSc2cc(=O)n(C)c3ccccc23)CC1	10.4	0.6%	0.7	x	x	x
CC(SC1=NCCN1S(C)(=O)=O)c1ccccc1 (stereo unspecified)	0.5	0.6%	0.8	-1.4	2.2	-3.3
O=[N+]([O-])c1ccc(N2CCCC2)cc1NC(c1ccccc1)c1ccccc1	-2.1	1.5%	1.6	2.0	-0.2	-3.1
C/C(=N\NC(=O)c1nnn(-c2nonc2N)c1CN1CCCCC1)c1ccccc1O	27.1	0.0%	-0.9	5.0	-5.6	-6.5
O=C(Nc1nccs1)C1C2/C=C\CCCCC21 (stereo unspecified)	0.5	12.5%	0.1	10.0	-0.7	-8.4
Cc1cnc(SCc2cnc(C)nc2N)nc1	3.5	0.0%	-0.1	0.9	-2.8	3.3
CN(CC(=O)Nc1ccccc1Cl)C(=O)COC(=O)Cc1c(F)cccc1Cl	-23.8	0.6%	0.0	1.7	-0.9	-8.5
C=CCNc1nc(NCCCN2CCCC2=O)c2sc(-c3ccccc3)cc2n1	x	0.7%	-0.7	-19.7	-5.6	-18.4
CCc1cccc(NS(=O)(=O)c2ccc3c(c2)n(C)c(=O)n3C)c1	-3.5	5.6%	-1.4	18.6	0.6	0.4

Single records, as listed above. Order of values: TRPML1 blocker	PINK1 expr mod	TRPML1 agonist	Six1-Eya2 blk	D2 ag	D2 PAM
Listed for `CCNc1oc(-c2cccc3ccccc23)nc1C#N` = 8.8	-1.0%	-1.2	10.0	0.2	-7.8
Listed for `CCc1cccc(NS(=O)(=O)c2ccc3c(c2)n(C)c(=O)n3C)c1` = -3.5	5.6%	-1.4	18.6	0.6	0.4
Listed for `CC(=O)OC[C@@H]1CN(Cc2ccccc2)C[C@H](n2cnc3c(N4CCCC4)ncnc32)O1` = x	-0.4%	-0.5	8.6	-4.5	0.5

(next part)
SMILES	TRPML1 blocker	PINK1 expr mod	TRPML1 agonist	Six1-Eya2 blk	D2 ag	D2 PAM
COc1cccc(OCc2cc(C(=O)N(C)C3CC(C)(C)NC(C)(C)C3)no2)c1	5.2	-1.3%	0.2	5.1	3.3	-12.5
COc1ccccc1N(CC(=O)Nc1ccc(S(=O)(=O)N2CCOCC2)cc1)S(C)(=O)=O	-16.2	-0.4%	1.2	0.6	-2.3	2.5
COc1ccc(C(=O)O)cc1Nc1cc(C)nc2ncnn12	-2.3	0.8%	-0.7	6.6	-3.5	-8.1
CCOc1ccc(N(CC(=O)NCCSCc2ccc(Cl)cc2)S(C)(=O)=O)cc1	22.9	0.1%	-0.3	9.2	-4.1	-29.4
COc1ccc(NC(=O)N(C)C[C@@H]2Oc3cc(Br)ccc3S(=O)(=O)N([C@H](C)CO)C[C@H]2C)cc1	-19.2	0.7%	-0.3	10.5	-10.5	-2.4
